Assay outcomes as filed in PubChem.
HSV augment: HSV replication enhancement | HSV replication augmentation in cells, fold increase | actives 0.005% (n = 220,000) | maximum fold increase;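 active means peak rise of 1.5-fold or more in the series; tested in PC3 cells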;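 further: first round at 10 µM; read as green reporter fluorescence; hits show the peak of a series up to 25 µM; 1 = signal of infected wells without compound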
GALR2 ag: activates the human galanin receptor 2. GALR2-expressing cells, agonist activation read-out. activation, %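 (tested at 5 µM)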. actives 0.48% (n = 140,000). AID 803;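 active means above mean plus 3 SD of all compounds, about 5% in these data, not always enough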;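 further: 0% = vehicle buffer wells and 100% = reference agonist at full effect; tested in CHO reporter cells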
Target sequence (O43603 whole entry, looked up): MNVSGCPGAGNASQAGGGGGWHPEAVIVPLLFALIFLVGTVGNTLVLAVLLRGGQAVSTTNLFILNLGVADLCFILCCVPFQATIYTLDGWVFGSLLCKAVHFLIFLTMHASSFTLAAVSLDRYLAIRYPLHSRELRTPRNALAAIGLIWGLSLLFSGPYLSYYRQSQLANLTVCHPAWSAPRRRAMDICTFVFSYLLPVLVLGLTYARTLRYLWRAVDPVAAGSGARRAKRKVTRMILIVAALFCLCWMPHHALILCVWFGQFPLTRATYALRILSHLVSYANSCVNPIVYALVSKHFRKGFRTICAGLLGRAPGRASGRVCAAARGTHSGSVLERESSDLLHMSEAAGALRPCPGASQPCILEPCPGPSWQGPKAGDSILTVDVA
PKD1 kinase inh: inhibitors of human PKD1 kinase; PKD1 kinase fluorescence polarization assay; actives 0.056% (n = 200,000); inhibition, %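 (about 10 µM by stock and volumes)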;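 active means inhibition of 50% or more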;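 further: controls were vehicle for no effect and a reference inhibitor for full effect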
RGS16-Gao: modulates binding between human RGS16 and Galphao. bead-based flow cytometry RGS16-Galphao binding, fluorescence; actives lie on both sides. binding response (% of control), % at 10 µM. actives 0.38% (n = 220,000). AID 1441;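 active means below 25% or above 175%, edge rows of some plates excepted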;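 further: Galphao activated by GDP with aluminum fluoride before binding; 100% = wells without compound and 0% = beads without RGS; some results beyond the cut were filed as inactive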
Target sequence (O15492 whole entry, looked up): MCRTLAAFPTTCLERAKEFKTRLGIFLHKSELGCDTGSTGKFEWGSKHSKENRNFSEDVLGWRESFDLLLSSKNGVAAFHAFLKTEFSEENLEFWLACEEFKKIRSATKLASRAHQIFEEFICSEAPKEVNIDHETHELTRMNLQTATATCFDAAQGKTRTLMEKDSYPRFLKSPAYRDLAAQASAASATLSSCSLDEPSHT
Target sequence (P09471 whole entry, looked up): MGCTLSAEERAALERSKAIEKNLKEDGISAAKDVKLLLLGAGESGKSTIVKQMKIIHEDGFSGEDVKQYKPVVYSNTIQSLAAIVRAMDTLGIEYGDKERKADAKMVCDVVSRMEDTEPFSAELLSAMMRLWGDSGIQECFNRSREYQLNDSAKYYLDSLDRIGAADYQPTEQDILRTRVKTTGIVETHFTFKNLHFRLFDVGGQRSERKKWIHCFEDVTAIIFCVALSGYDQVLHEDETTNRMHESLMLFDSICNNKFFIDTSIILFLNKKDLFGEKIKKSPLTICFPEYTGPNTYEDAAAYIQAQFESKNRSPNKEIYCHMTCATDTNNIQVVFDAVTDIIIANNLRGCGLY
INS promoter inh: TRM-6 insulin promoter activity inhibition | TRM-6 cells (human fetal islet line), insulin promoter-eGFP reporter, imaging; reporter expression induced with tamoxifen | inhibition, % at 2 µM | actives 0.9% (n = 130,000) | AID 1273;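 active means inhibition above the mean plus 3 SD, with well images judged a real hit on visual review, cut at about 60% in these data, passing the limit was not always enough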
INS promoter inh cell count: second read-out of INS promoter inh, no call of its own (marks repeat the call); normalized cell count, %; measured here: cell count, toxicity; reference of the scale not given here;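 cells exposed to compound for 48 h; stained nuclei by imaging scaled within each plate; lower means fewer cells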
HSV augment primary fold: second read-out of HSV augment, no call of its own (marks repeat the call); fold increase; compound at 10 µM; measured here: primary screen fold increase 10 uM; tested in PC3 cells;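 GFP signal in the first replicate; 1 = infected wells without compound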
* = called active by the depositor; i = inactive; nt = no result given.

Start of the data: the first 6 records, to show the layout:
SMILES	HSV augment	HSV augment primary fold	GALR2 ag	PKD1 kinase inh	RGS16-Gao	INS promoter inh	INS promoter inh cell count
Cn1c(CCc2ccccc2)nnc1SCC(=O)N1CCCC1	i	0.98	-1.4	3	101	-53	105
CSc1nc(N)c(C#N)c(-c2ccccc2Cl)c1C#N	i	0.86	-2.4	-7	93	nt	nt
Cc1occc1C(=O)NNC(=S)NCc1ccc(Cl)cc1	i	0.78	nt	-6	99	-33	163
Cc1nnc(NC(=O)CCC(=O)N2CCC(C)CC2)s1	i	1.1	-3.0	-9	105	59	95
N#C/C(=C/c1ccc(OCc2ccc(C(=O)O)cc2)c(Br)c1)c1cccc(F)c1	i	0.94	nt	-8	104	20	99
Cc1ccc(NC(=O)Cc2nnc(SCC(=O)Nc3ccccc3)n2C)cc1	i	0.97	-1.5	-8	109	38	94

This part in full, previewed entries included:
SMILES	HSV augment	HSV augment primary fold	GALR2 ag	PKD1 kinase inh	RGS16-Gao	INS promoter inh	INS promoter inh cell count
Cn1c(CCc2ccccc2)nnc1SCC(=O)N1CCCC1	i	0.98	-1.4	3	101	-53	105
CSc1nc(N)c(C#N)c(-c2ccccc2Cl)c1C#N	i	0.86	-2.4	-7	93	nt	nt
Cc1occc1C(=O)NNC(=S)NCc1ccc(Cl)cc1	i	0.78	nt	-6	99	-33	163
Cc1nnc(NC(=O)CCC(=O)N2CCC(C)CC2)s1	i	1.1	-3.0	-9	105	59	95
N#C/C(=C/c1ccc(OCc2ccc(C(=O)O)cc2)c(Br)c1)c1cccc(F)c1	i	0.94	nt	-8	104	20	99
Cc1ccc(NC(=O)Cc2nnc(SCC(=O)Nc3ccccc3)n2C)cc1	i	0.97	-1.5	-8	109	38	94
COc1ccc(-c2ncncc2-c2ccc(Cl)cc2)c(O)c1	i	0.89	nt	nt	93	nt	nt
COc1ccc(Cl)cc1C(=O)NNC(=O)c1nc2nc(C)cc(C)n2n1	i	1	nt	nt	95	nt	nt
O=C1CN(C(=O)c2ccc(Br)o2)C(c2ccccc2)c2cc(F)ccc2N1 (centres undefined)	i	0.74	-2.3	-11	88	nt	nt
COc1ccc(NC(=O)Nc2ccc(N(C)C)cc2)cc1	i	0.95	-2.7	5	100	-79	155
O=C(O)C1CCC(=O)N1C1CCCC1 (centres undefined)	i	0.92	-0.7	-4	101	nt	nt
CCCOP(=O)(c1ccc(N(C)C)cc1)C(O)c1cccnc1 (centres undefined)	i	1.1	-4.0	-13	99	15	156
Cc1onc(-c2c(F)cccc2Cl)c1C(=O)N1CCN(c2ncc(Br)cn2)CC1	i	0.93	nt	nt	92	nt	nt
CCOC(=O)C1=C(CSCc2ccccc2)NC(=O)NC1c1cc(C)ccc1C (centres undefined)	i	0.98	-1.6	-9	93	7	91
Cc1ccc(NC(=S)N=Nc2c(O)n(C)c3ccc(S(=O)(=O)N4CCOCC4)cc23)cc1C	i	0.96	-1.7	-22	101	-64	19
CCN=C1SC(CC(=O)Nc2sc3c(c2C#N)CCCC3)C(=O)N1CC (centres undefined)	i	0.97	-2.6	-6	98	-7	98
NC(=O)CSc1nnc(-c2ccc(S(=O)(=O)N3CCOCC3)cc2)n1CC1CCCO1 (centres undefined)	i	0.83	-0.5	-2	96	-24	82
Cc1ccccc1NC1=C(Cl)C(=O)OC1OC(=O)c1ccco1 (centres undefined)	i	0.88	-1.6	-3	92	10	120
COCCOC(=O)C1=C(C)Nc2ncnn2C1c1ccc(F)cc1 (centres undefined)	i	0.94	-1.6	-8	102	nt	nt
CC1SC(c2ccccc2Cl)NC1=O (centres undefined)	i	1	-1.7	-8	99	19	111
Clc1ccccc1CSc1nncn1NC/C=C/c1ccccc1	i	0.89	0.8	9	105	nt	nt
O=C(Nc1ccccc1Cl)N(Cc1nc2ccccc2c(=O)[nH]1)Cc1cccs1	i	0.97	1.1	-7	110	-11	106
Cc1nnc(NC(=O)c2csc3c2CCC(C)C3)s1 (centres undefined)	i	0.92	nt	-2	99	-15	83
NC(=O)NC(=O)CC1S/C(=N/N=C/c2ccccc2)NC1=O (centres undefined)	i	0.98	nt	-6	101	nt	nt
COc1ccc(OC)c(NC(=O)CSc2ncccn2)c1	i	0.82	-1.1	-15	98	-10	53
O=C(Nc1sc2c(c1C(=O)NCC1CCCO1)CCCC2)c1cccs1 (centres undefined)	i	0.64	0.3	-13	21	29	125
CCN(CC)CCN1C(=O)C(=O)/C(=C(/O)c2ccncc2)C1c1ccccc1 (centres undefined)	i	1	-3.1	-14	102	-21	131
COc1ccc(NC(=O)N(CCC(C)C)C(C)c2ccccn2)c(OC)c1 (centres undefined)	i	0.83	-0.3	-7	101	nt	nt
CN1CC(=O)NC1=NC(=O)c1cc(F)c(F)cc1Cl	i	0.95	-1.6	-17	97	nt	nt
Cc1ccc(CCSc2ccc(F)cc2)cn1	i	1	nt	nt	108	nt	nt
Cc1cc(C)cc(N(C(=O)C(F)(F)F)C(C(=O)NC2CCCCC2)c2cccs2)c1 (centres undefined)	i	1.2	-2.1	-19	85	-18	97
Cc1ccc(N(C(C)C(=O)Nc2ccc(S(=O)(=O)N3CCOCC3)cc2)S(C)(=O)=O)cc1 (centres undefined)	i	0.82	-0.7	-9	92	-6	92
O=C(O)c1cc(=O)c2cc(Cl)ccc2o1	i	0.91	-1.4	0	101	-6	87
CCOC(=O)c1cccc(NC(=O)CSc2nnc(-c3ccoc3C)n2CCOC)c1	i	0.91	-0.5	1	67	-89	52
Cc1ccc(N2C(=O)C3C4CC(=O)C(c5ccccc54)C3C2=O)cc1 (centres undefined)	i	0.82	-0.3	9	127	-3	72
CC1CC(C)CN(c2cc(N(C)CCO)c([N+](=O)[O-])c3nonc23)C1 (centres undefined)	i	0.93	nt	-6	98	nt	nt

Reformatted: three of the compounds above.
Fields – HSV augment, HSV augment primary fold, GALR2 ag, PKD1 kinase inh, RGS16-Gao, INS promoter inh, INS promoter inh cell count
CC1SC(c2ccccc2Cl)NC1=O (centres undefined)
    i, 1, -1.7, -8, 99, 19, 111
Clc1ccccc1CSc1nncn1NC/C=C/c1ccccc1
    i, 0.89, 0.8, 9, 105, nt, nt
O=C(Nc1ccccc1Cl)N(Cc1nc2ccccc2c(=O)[nH]1)Cc1cccs1
    i, 0.97, 1.1, -7, 110, -11, 106

Other compounds:
SMILES	HSV augment	HSV augment primary fold	GALR2 ag	PKD1 kinase inh	RGS16-Gao	INS promoter inh	INS promoter inh cell count
COc1cccc(N2CC(C(=O)Nc3ccc(C(=O)OC(C)C)cc3)CC2=O)c1 (centres undefined)	i	1	0.0	-8	99	-2	117
Cc1nc([N+](=O)[O-])cn1CCC#N	i	0.82	nt	nt	99	nt	nt
Cn1c(SCC(=O)NCc2ccccc2)nc2c([nH]c3ccccc32)c1=O	i	1.1	nt	-2	99	11	77
OCCC1CN(Cc2cccn2-c2ncccn2)CCN1Cc1ccccc1 (centres undefined)	i	0.98	nt	3	92	nt	nt
COc1cc2ccccc2nn1	i	1.1	nt	nt	99	nt	nt
CCOC(=O)CNC(=O)CSc1nnc(Cn2c(=O)sc3ccccc32)n1-c1ccccc1C	i	0.92	-0.3	-11	10	nt	nt
CCC(C)NC(=O)CN(c1cc(Cl)ccc1OC)S(C)(=O)=O (centres undefined)	i	0.93	-1.1	-3	100	-17	118
CCOC(=O)c1c(NC(=O)CSc2nc3cc(Cl)ccc3s2)sc(C(C)=O)c1C	i	1	-0.1	27	131	28	87
CCc1nnc(NC(=O)C2CCCN(c3nc(C)cc(C)n3)C2)s1 (centres undefined)	i	0.94	-0.6	-7	102	nt	nt
CCOC(=O)C1=C(C)N=C2SC(C)C(=O)N2C1c1ccc(C(=O)OC)cc1 (centres undefined)	i	1.1	0.2	0	119	nt	nt
Cc1onc(-c2ccccc2Cl)c1C(=O)NCCN1CCOCC1	i	1	0.2	3	100	-4	57
Cc1scc(C(=O)NCc2ccco2)c1-c1ccccc1	i	0.9	-1.3	5	97	nt	nt
COCC(C)NC(=O)Cc1ccc(Cl)cc1 (centres undefined)	i	0.95	nt	-5	100	nt	nt
c1cnc(-c2noc(CN3CCN(C4CCCC4)CC3)n2)cn1	i	1.1	nt	11	108	nt	nt
CC1(O)c2ccccc2C(=O)N1Cc1ccccc1 (centres undefined)	i	0.93	-0.8	16	87	nt	nt
COCCOC(=O)C1=C(C)NC(=S)NC1c1cccs1 (centres undefined)	i	0.93	nt	-9	101	nt	nt
COc1ccc(/C=C2/SC(c3ccc(C)cc3)=NC2=O)cc1OC	i	0.91	-0.3	-8	91	nt	nt
CC1CCN(S(=O)(=O)c2ccc(NC(=O)CSc3nnnn3C)cc2)CC1	i	0.81	-1.0	-5	116	63	69
CCOc1cc(C2C3=C(CCCC3=O)OC3=C2C(=O)CCC3)cc([N+](=O)[O-])c1O	i	1	nt	-2	95	6	23
CC(=O)N(CC(=O)Nc1nn(-c2ccccc2)nc1C(N)=O)Cc1ccccc1	i	1.1	-1.8	10	105	nt	nt
O=C(O)C1CCCN1C(=O)Nc1ccc(Cl)cc1 (centres undefined)	i	0.98	-0.3	-3	114	50	107
CS(=O)(=O)N1CCN(c2ncccn2)CC1	i	0.98	-1.9	-10	108	83*	139*
CCN1CCN(CCNC(=O)c2ccc(/C=C3/Sc4ccccc4N(Cc4cccc(Cl)c4)C3=O)cc2)CC1	i	0.59	nt	3	100	nt	nt
COc1ccc2[nH]c(C)c(C(=O)CN(C)CC3OCCO3)c2c1	i	1.1	nt	nt	90	nt	nt
Cc1cc(C)c2[nH]c(=O)c(CN(Cc3ccco3)C(=O)C3CCCO3)cc2c1 (centres undefined)	i	1	-1.7	8	132	-6	109
Nc1nc(CSc2ccccn2)nc(Nc2ccccc2)n1	i	1	-2.6	-2	99	-70	126
CCSc1sccc1C1C(C#N)=C(N)N(c2cccnc2)C2=C1C(=O)CC(C)(C)C2 (centres undefined)	i	0.95	-0.8	3	110	-8	97
CCOc1cc(NS(=O)(=O)c2ccc(OC)cc2)c(OCC)cc1NC(C)=O	i	0.89	nt	-6	102	nt	nt
COc1cccc(C(=O)NC2CCN(CC(=O)Nc3nccs3)CC2)c1	i	0.95	-0.8	-3	103	24	149
CC(Cl)C(=O)Nc1cc(C(C)(C)C)nn1-c1ccccc1 (centres undefined)	i	1	nt	-10	102	nt	nt
CCOC(=O)NC(NC(=O)OCC)C(=O)c1ccc(F)cc1	i	0.96	-0.5	-14	100	15	77
O=C(c1ccccc1)c1ccccc1N1C(=O)C=CC1=O	i	0.98	nt	nt	88	nt	nt
Clc1ccc(CNc2ccc(CNc3ncn[nH]3)cc2)c(Cl)c1	i	0.96	nt	nt	104	nt	nt
CC1CCCCC1NC(=O)CSc1ccc([N+](=O)[O-])cc1 (centres undefined)	i	0.87	nt	nt	103	nt	nt
OCCC1CN(Cc2cccc3c2OCO3)CCN1C1CCCC1 (centres undefined)	i	1.1	nt	1	107	-17	139
O=C(NC(NC(=S)Nc1c(Cl)cccc1Cl)C(Cl)(Cl)Cl)c1cccc([N+](=O)[O-])c1 (centres undefined)	i	0.98	-1.0	10	103	-63	136
O=C(NN=C1CCN(Cc2ccccc2)CC1)c1ccccc1O	i	0.98	nt	4	107	nt	nt
O=C1N/C(=N\c2ccccn2)SC1Cc1ccccc1Cl (centres undefined)	i	1.1	nt	nt	86	nt	nt
COc1ccc(C(=O)C2CCCN(C(=O)c3cc(C)nc(C)n3)C2)cc1OC (centres undefined)	i	0.94	nt	-7	95	11	124
c1coc(Cn2c(SCc3nc4ccccc4[nH]3)nnc2-c2cnccn2)c1	i	0.99	-2.2	-1	96	nt	nt
O=C(NCCC1=CCCCC1)c1ccc(Cl)c([N+](=O)[O-])c1	i	0.91	0.8	0	105	-6	180
O=C(c1ccco1)N1CCN(C(=O)c2ccc(COc3ccc(F)cc3)o2)CC1	i	1.1	-0.3	-6	106	nt	nt
CCOC(=O)N1CCN(CC(O)COC2CC(C)CCC2C(C)C)CC1 (centres undefined)	i	1	-1.3	-3	102	-400	54
CCN1CCN(C(=O)c2c(-c3c(F)cccc3Cl)noc2C)CC1	nt	nt	-5.4	3	114	-12	96
CCCN1CCC(NC(=O)CCc2nnc(-c3ccccc3)o2)CC1	i	0.95	nt	3	101	nt	nt
CCOc1ccc(NC(=S)NCC(c2cccnc2)N2CCOCC2)cc1 (centres undefined)	i	0.98	nt	-1	105	7	100
COc1cc(SC)ccc1C(=O)Nc1nccs1	i	0.73	nt	7	103	nt	nt
O=c1c(CO)cc(CO)cc(CO)c1O	i	1.1	nt	nt	78	nt	nt
CCN(CC)C(=O)CSc1nc(O)cc(=O)n1CC	i	0.74	-1.4	-5	113	-73	102
O=C(c1cc(Cl)ccc1[N+](=O)[O-])n1cnc2ccccc21	i	0.94	-1.8	-10	126	18	159
O=C(O)/C=C/C(=O)NC1CC1	i	0.94	nt	1	112	36	98
CS(=O)(=O)N1CCc2cc(C(=O)Nc3ccccc3)ccc21	i	0.95	nt	0	103	nt	nt
